High-throughput results from PubChem BioAssay.
Mtb growth = Mycobacterium tuberculosis H37Rv growth inhibition, cell based, confirmatory dose response (AID 1949); inhibition, % at 10 µg/mL, or IC50 in µg/mL where a hit was titrated; actives 1.6% (n = 100,000); most inactive calls were filed without a number and no value below 0 was filed;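 active = confirmed in a dose series; inconclusive = about 50% or more but not retested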;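 note: bacteria grown 7 days with compound before Alamar blue readout; 0% = untreated bacteria and 100% = reference antibiotic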
* = called active by the depositor.

How did CC(=O)c1cc2c(cc1NC(=O)CCC(=O)O)OCO2 do in these assays?
Mtb growth: inactive

Results for Cn1c(SCC(=O)Nc2c(F)cc(F)cc2Br)nnc1-c1cnccn1 ?
Mtb growth: inactive

Results for CC(=O)c1nn(-c2ccc(F)cc2)nc1Nc1ccc2c(c1)OCCO2 ?
Mtb growth: 0.1%

Results for COC(=O)c1cc(C)sc1NC(=S)Nc1cnn(Cc2cccc3ccccc23)c1 ?
Mtb growth: inactive

Results for O=C(NCC1CCCO1)c1cccc(C(=O)NCC2CCCO2)n1 (stereo not given) ?
Mtb growth: 1.2%

What do the screens show for `N/C(=N\c1nc(C(F)(F)F)cc(=O)[nH]1)Nc1ccc(I)cc1`?
Mtb growth: inactive

How did CCCCOc1ccccc1C1C(C#N)=C(N)Oc2n[nH]c(-c3ccc(OC)cc3)c21 (stereo not given) do in these assays?
Mtb growth: 1.6%

How did CCCNS(=O)(=O)c1cc(Cl)c(OCC)cc1Cl do in these assays?
Mtb growth: inactive

Results for Cc1cc2sc(NC(=O)COc3ccccc3Cl)nc2cc1Cl ?
Mtb growth: inactive

Results for COC(=O)c1ccccc1NC(=O)CSc1nnc(COc2ccc(C(C)C)cc2)o1 ?
Mtb growth: inactive

What do the screens show for `CCC(=O)c1ccc(OC(=O)c2ccc(OC)c(I)c2)cc1`?
Mtb growth: inactive

Results for CCOC(=O)c1ccc(N/C(=N\S(=O)(=O)c2ccccc2C)c2ccccc2)cc1 ?
Mtb growth: 4.3%

How did Cc1ccc(N(CCCCN2C(=O)c3ccccc3C2=O)C(=O)c2cccc(C)c2)cc1 do in these assays?
Mtb growth: inactive

How did CC(=O)Nc1nc(-c2cc3ccccc3oc2=O)cs1 do in these assays?
Mtb growth: inactive

How did CC(NC(=S)Nc1ccc(S(N)(=O)=O)cc1)c1ccncc1 (stereo not given) do in these assays?
Mtb growth: inactive

What do the screens show for `Cc1ccc(C(C)C)c(OCC#CCN2CCNCC2)c1`?
Mtb growth: inactive

How did CCOC(=O)c1cc(C)n(CCCN2CCOCC2)c1C do in these assays?
Mtb growth: inactive

What do the screens show for `COc1ccc(C(NC(=O)c2cccc(OC)c2)c2ccccc2)cc1` (stereo not given)?
Mtb growth: inactive

Results for COCCCNC(=O)CN(CCc1ccccc1)S(=O)(=O)c1ccc(Cl)cc1 ?
Mtb growth: inactive

How did CS(=O)(=O)N1CCN(C(c2ccccc2)c2ccccc2)CC1 do in these assays?
Mtb growth: inactive

How did CC(=O)Nc1ccc(S(=O)(=O)N2CCOCC2)cc1 do in these assays?
Mtb growth: inactive

What do the screens show for `CCOc1ccc(C(C)NC(=O)c2ccc(Br)cc2)cc1` (stereo not given)?
Mtb growth: inactive

Results for CCOC(=O)C(C)N1c2cccc3cccc(c23)S1(=O)=O (stereo not given) ?
Mtb growth: 1.3%

How did COc1ccc(S(=O)(=O)n2cc(-c3ccc(F)cc3)c(N)n2)c(OC)c1 do in these assays?
Mtb growth: inactive

What do the screens show for `C=C(C)Cn1cnc2c(sc3nc4c(cc32)COC(C)(C)C4)c1=O`?
Mtb growth: inactive

How did Cn1cc(CNC(=O)Nc2ccc(F)cc2F)cn1 do in these assays?
Mtb growth: inactive

How did O=c1c2ccccc2nc(-c2cccs2)n1Cc1ccccc1 do in these assays?
Mtb growth: inactive

How did COC(=O)C1=C(C)NC2=C(C(=O)CCC2)C1c1cc(COc2ccc(F)cc2)c(C)s1 (stereo not given) do in these assays?
Mtb growth: inactive

Results for CCOC(=O)c1c(NC(=O)CSc2nnc3c4ccccc4n(CC)c3n2)sc2c1CCN(C)C2 ?
Mtb growth: inactive

What do the screens show for `O=C1CC(C(=O)Nc2ccccc2Br)C2(CCCCC2)O1` (stereo not given)?
Mtb growth: 6.2%

How did O=C(CCN1C(=O)c2ccccc2C1=O)Nc1ccccc1Oc1ccccc1 do in these assays?
Mtb growth: inactive

Results for COC(=O)c1ccccc1NC(=O)c1ccc(CSc2ccc(Cl)cc2)cc1 ?
Mtb growth: 0.5%

What do the screens show for `COc1ccc(OC)c(NC(=O)c2ccc3c(c2)C(=O)N(CC(C)C)C3=O)c1`?
Mtb growth: inactive

Results for CCCn1nnc(NC(=O)c2cccc(OCc3ccccc3)c2)n1 ?
Mtb growth: inactive

How did N#C/C(=C\c1cccs1)c1cccc(C#N)c1 do in these assays?
Mtb growth: inactive

What do the screens show for `Cc1noc(C)c1C(=O)Nc1sc(C)c(C)c1C#N`?
Mtb growth: inactive

How did COc1ccc(OC(C)C(=O)Nc2cccc(C(C)=O)c2)cc1 (stereo not given) do in these assays?
Mtb growth: inactive

Results for COc1ccc(CCC(=O)Nc2cc([N+](=O)[O-])ccc2OC)cc1 ?
Mtb growth: inactive

Results for O=C(Nc1nc2ccccc2s1)c1cnccn1 ?
Mtb growth: inconclusive

What do the screens show for `Cc1ccc(S(=O)(=O)N2CCN(c3ccc([N+](=O)[O-])c(NCc4ccco4)c3)CC2)cc1C`?
Mtb growth: inactive

How did CCCCS(=O)(=O)CC(O)COCc1ccc(Cl)cc1 (stereo not given) do in these assays?
Mtb growth: inactive

How did COc1ccccc1C(=O)N/C(=C/c1ccc(Br)cc1)C(=O)NCCC(=O)O do in these assays?
Mtb growth: inactive

What do the screens show for `COC(=O)C1=C(C)Nc2ncnn2C1c1ccco1` (stereo not given)?
Mtb growth: 2.0%

Results for COc1c(Cl)cc(Cl)cc1C(=O)O ?
Mtb growth: inactive

How did COc1cc(NC(=O)c2cc(Br)ccc2Cl)ccc1-c1cc2ccccc2oc1=O do in these assays?
Mtb growth: inactive

What do the screens show for `CCOc1cccc(NC(=O)CC2C(=O)N(CC)C(=S)N2Cc2ccccc2Cl)c1` (stereo not given)?
Mtb growth: inactive

Results for COc1cc(C#N)ccc1OCC(N)=O ?
Mtb growth: inactive

Results for COc1ccc(Br)cc1S(=O)(=O)N1CCN(c2cccc(Cl)c2)CC1 ?
Mtb growth: 5.3%

What do the screens show for `CCOc1ccc2nc(SCC(=O)NC(c3ccccc3)c3ccccc3)sc2c1`?
Mtb growth: inactive

How did CCOC(=O)c1c(NC(=O)c2cc(Cl)ccc2OC)sc2ccccc12 do in these assays?
Mtb growth: inactive

Retrieved by structure from the entries so far, 4 records:
How did CCOC(=O)c1c(NC(=O)c2cc(Cl)ccc2OC)sc2ccccc12 do in these assays?
Mtb growth: inactive

Results for COc1cc(C#N)ccc1OCC(N)=O ?
Mtb growth: inactive

Results for COc1ccc(Br)cc1S(=O)(=O)N1CCN(c2cccc(Cl)c2)CC1 ?
Mtb growth: 5.3%

How did COc1ccccc1C(=O)N/C(=C/c1ccc(Br)cc1)C(=O)NCCC(=O)O do in these assays?
Mtb growth: inactive

In the list so far, these contain a nitro group on carbon:
Results for COc1ccc(CCC(=O)Nc2cc([N+](=O)[O-])ccc2OC)cc1 ?
Mtb growth: inactive

What do the screens show for `Cc1ccc(S(=O)(=O)N2CCN(c3ccc([N+](=O)[O-])c(NCc4ccco4)c3)CC2)cc1C`?
Mtb growth: inactive

Further results follow:
What do the screens show for `O=C(Cc1cccs1)Nc1cccc(C(=O)NCc2ccccc2)c1`?
Mtb growth: 1.6%

What do the screens show for `CC1CN(C(=O)c2cc(Br)ccc2Cl)CC(C)O1` (stereo not given)?
Mtb growth: inactive

How did O=C(Nc1ccc(Cl)cn1)c1cnn2cccnc12 do in these assays?
Mtb growth: inactive

What do the screens show for `Cc1cc(Cl)c(S(=O)(=O)NC23CC4CC(CC(C4)C2)C3)cc1OCC(N)=O`?
Mtb growth: inactive

What do the screens show for `CCCSc1nc(C)cc(C)c1C#N`?
Mtb growth: inactive

How did Nc1nc2n(n1)C(c1c(Cl)cccc1Cl)CC(c1ccccc1)N2 (stereo not given) do in these assays?
Mtb growth: inactive

What do the screens show for `COc1ccc(NC(=S)N2CCN(C(=O)c3ccco3)CC2)c(OC)c1`?
Mtb growth: inactive

What do the screens show for `Cc1nnc(NC(=O)Cn2c(=O)oc3ccccc32)s1`?
Mtb growth: inactive

Results for CCCCC(=O)Nc1ccc(C(=O)Nc2ccncc2)cc1 ?
Mtb growth: inactive

What do the screens show for `COc1ccc(S(=O)(=O)Nc2ccc(O)c(Sc3nc4ccccc4s3)c2)cc1`?
Mtb growth: inactive

How did CCn1c(Cc2ccccc2)nnc1SCC(=O)Nc1ccc(F)c(Cl)c1 do in these assays?
Mtb growth: inactive

Results for COc1ccc(OC)c(NC(=O)Cc2coc3ccc4ccccc4c23)c1 ?
Mtb growth: inactive

How did CC(=O)NC(NC(=S)Nc1ccccc1Br)C(Cl)(Cl)Cl (stereo not given) do in these assays?
Mtb growth: inactive

Results for COc1ccc(-c2nc(N(C(=O)Cc3ccccc3)c3ccc(OC)cc3)sc2C)cc1 ?
Mtb growth: inactive

How did CCOC(=O)c1sc(NC(=O)C(CC)Sc2nc(C)cc(C)n2)nc1C (stereo not given) do in these assays?
Mtb growth: inactive

Results for Cc1cccc(-c2nnc(SCC(=O)Nc3cc([N+](=O)[O-])ccc3C)o2)c1 ?
Mtb growth: inactive

How did O=C(Nc1ccc(S(=O)(=O)N2CCCC2)cc1)C1CC1 do in these assays?
Mtb growth: inactive

How did CCOC(=O)N1CCN(c2cc(N)c([N+](=O)[O-])cc2F)CC1 do in these assays?
Mtb growth: 1.2%

Results for O=C(NCc1cccnc1)c1ccc(COc2ccc(Cl)cc2Cl)o1 ?
Mtb growth: inactive

Results for O=C(CSc1nc(-c2ccco2)cc(C(F)(F)F)n1)NCc1cccs1 ?
Mtb growth: 1.7%

Five entries already listed, sorted by SMILES length, largest number first.
Results for COc1ccc(-c2nc(N(C(=O)Cc3ccccc3)c3ccc(OC)cc3)sc2C)cc1 ?
Mtb growth: inactive

How did CCOC(=O)c1sc(NC(=O)C(CC)Sc2nc(C)cc(C)n2)nc1C (stereo not given) do in these assays?
Mtb growth: inactive

Results for COc1ccc(OC)c(NC(=O)Cc2coc3ccc4ccccc4c23)c1 ?
Mtb growth: inactive

How did CC(=O)NC(NC(=S)Nc1ccccc1Br)C(Cl)(Cl)Cl (stereo not given) do in these assays?
Mtb growth: inactive

How did O=C(Nc1ccc(S(=O)(=O)N2CCCC2)cc1)C1CC1 do in these assays?
Mtb growth: inactive

Carrying on:
How did O=C1Nc2c(S(=O)(=O)O)cc(S(=O)(=O)O)c3cccc1c23 do in these assays?
Mtb growth: 0.6%

How did Cc1ccccc1OCC(=O)Nc1cccc(Oc2ccc3c(c2)C(=O)NC3=O)c1 do in these assays?
Mtb growth: inactive

Results for Cc1sc2ncnc(NC(Cc3ccccc3)C(=O)O)c2c1C (stereo not given) ?
Mtb growth: inactive

How did O=C(c1ccc(Br)s1)N1CCOCC1 do in these assays?
Mtb growth: inactive

What do the screens show for `CCN(CC)c1ccc(NC(=S)NCCc2ccccc2)cc1`?
Mtb growth: inactive

Results for c1ccc(C2Nc3ccccc3C3OCCC23)cc1 (stereo not given) ?
Mtb growth: inactive

What do the screens show for `O=C(NCc1ccncc1)C1CCN(S(=O)(=O)c2ccc(Cl)cc2)CC1`?
Mtb growth: inactive

What do the screens show for `CCOc1ccccc1N1CCN(C(=S)Nc2ccccc2C(F)(F)F)CC1`?
Mtb growth: 4.0%

Results for Cc1ccc(-c2nn(CCC(=O)N3CCN(c4ccccc4)CC3)c(=O)c3ccccc23)cc1 ?
Mtb growth: 8.2%

Results for CS(=O)(=O)c1ccc2nc(NC(=O)Cc3ccccc3Cl)sc2c1 ?
Mtb growth: inactive

What do the screens show for `c1ccc(COc2ccc(OCCCCN3CCCCC3)cc2)cc1`?
Mtb growth: 1.3%

Results for COc1ccc(-n2c3c(cc(C(N)=O)c2=O)C(=O)CC(C)(C)C3)cc1 ?
Mtb growth: inactive

What do the screens show for `CCCC(=O)Nc1cc(-c2nnc(OC)c3ccccc23)ccc1N1CCCCC1`?
Mtb growth: inactive

Results for CS(=O)(=O)N(CC(=O)NC1CCCC1)c1ccc2c(c1)OCCO2 ?
Mtb growth: inactive

How did C#CC(CC)(CC)NC(=O)c1ccc(CC)s1 do in these assays?
Mtb growth: inactive

What do the screens show for `COc1ccc(CN(CCC(c2ccco2)c2ccccc2OC)C(=O)c2ccco2)cc1` (stereo not given)?
Mtb growth: 1.2%

Results for CCC(C)c1ccc(OCC(=O)O)cc1 (stereo not given) ?
Mtb growth: inactive

How did CCc1ccc(OCC(=O)Nc2ccc(Br)cc2C(C)C)cc1 do in these assays?
Mtb growth: inactive

What do the screens show for `O=C(CSc1nnnn1-c1ccccc1F)Nc1ccc2c(c1)OCCO2`?
Mtb growth: inactive

What do the screens show for `COc1ccccc1N(CC(=O)N1CCN(C)CC1)S(C)(=O)=O`?
Mtb growth: inactive

How did CCc1nc(N)c(C#N)c(-c2ccccc2Cl)c1C do in these assays?
Mtb growth: inactive

Results for CCOC(=O)c1ccc(CSc2nnnn2-c2ccccc2)cc1 ?
Mtb growth: inactive

How did O=S(=O)(Nc1cccc(Cl)c1)c1ccc(NS(=O)(=O)c2cc(Cl)ccc2Cl)cc1 do in these assays?
Mtb growth: inactive

What do the screens show for `COc1ccc(C)cc1NC(=S)Nc1ccc(C(=O)N2CCCCC2)cc1`?
Mtb growth: inactive

Results for Cc1cc(Nc2ccc(O)cc2)c2cccc(Br)c2n1 ?
Mtb growth: inactive

How did CCOc1ccc(S(=O)(=O)N(CC(=O)Nc2ccccc2C(=O)NC(C)C)c2ccccc2)cc1 do in these assays?
Mtb growth: inactive

Results for Cc1ccc(OCCNC(=O)Cc2ccc(F)cc2)cc1 ?
Mtb growth: 8.3%

Results for Cc1cc(OCC(=O)Nc2ccncc2)ccc1Br ?
Mtb growth: inconclusive

How did O=c1c(Cl)c(N2CCCC2)cnn1C12CC3CC(CC(C3)C1)C2 do in these assays?
Mtb growth: inactive

How did CCOC(=O)c1cnc2c(C)c(C)ccc2c1NCCN(C)C do in these assays?
Mtb growth: 0.1%

Results for O=C(CN1CCN(c2ccccc2)CC1)Nc1ccc(Br)cc1 ?
Mtb growth: inactive

How did COc1ccc([N+](=O)[O-])cc1NC(=O)C1C(c2ccccc2)C=CC(c2ccccc2)C1C(=O)O (stereo not given) do in these assays?
Mtb growth: inactive

What do the screens show for `CC(C)C(Nc1ncnc2ccc(Br)cc12)C(=O)O` (stereo not given)?
Mtb growth: inactive

How did Cc1ccc(S(=O)(=O)Cc2cccc(C(=O)OCc3ccccc3Cl)c2)cc1 do in these assays?
Mtb growth: inactive

How did O=C(Nc1ccc(NS(=O)(=O)c2ccc([N+](=O)[O-])cc2)cc1)c1ccco1 do in these assays?
Mtb growth: inactive

This is a subset; rates above refer to the full screens.
